Screening results from PubChem.
TAR Tat displ: HIV-1 TAR-Tat binding disruption. HIV-1 TAR RNA, Tat peptide displacement FRET; hits give high values. z-score (no concentration beside the values). 0.6% of 100,000 active. AID 1259389;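 further: score is relative to mean and SD of negative controls; some compounds called inactive have numbers as strong as hits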
CDC25B-CDK2 inh: human CDC25B-CDK2/CyclinA binding inhibition; 0.72% of 94,000 active; AID 1259370; z-score (test concentration not listed); P30305+P24941; HTRF CDC25B-CDK2/CyclinA binding, anti-His/anti-Flag; hits give high values;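 further: score is relative to mean and SD of negative controls; strong numbers were not always called active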
The depositor's hits bear a star; · = not tested or not shown.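 How the source made its calls: active means z-score from 3 up in half or more of its runs; inactive means the rest.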

compound	TAR Tat displ	CDC25B-CDK2 inh
COc1ccc(-c2noc(C(C)Oc3ccccc3)n2)cc1OC (stereo not drawn)	-1.2	-2
Cc1c(C(=O)N(Cc2cccc(F)c2)C2CCS(=O)(=O)C2)oc2cc(Br)ccc12 (stereo not drawn)	1.7	-0.1
COC(=O)c1c(C)oc2ccc(NS(=O)(=O)c3ccc(Cl)cc3)cc12	0.19	-0.32
O=C(Nc1ccccc1)N1CC2CCCN2c2ccccc21 (stereo not drawn)	0.21	·
CC(C)CCCC(C)[C@H]1CCC2C3CC[C@H]4CC(=O)CC[C@]4(C)C3CC[C@@]21C (stereo partly drawn)	3.3	·
CCC1(C)Cc2ccccc2-c2[nH]c(=O)n(C(C)C)c(=O)c21 (stereo not drawn)	-1.8	-2.2
Cc1cc(C)c2c(n1)sc1c(=O)[nH]nnc12	·	-0.97
Cc1csc2nc(CSc3ccccc3NC(=O)c3ccco3)cc(=O)n12	-0.64	·
CN[C@@H]1[C@@H](O[C@H]2O[C@H](CO)[C@@H](N)[C@H](O)[C@H]2O)O[C@H]2C[C@@H](N)[C@H](O[C@H]3[C@H](O)[C@@H](O)[C@H](N)C[C@@H]3N)O[C@@H]2[C@@H]1O	2.6	·
CCN(CC)c1nc(N)c([N+](=O)[O-])c(Nc2ccccc2)n1	1.6	·
CC(C)NC(=O)Cn1ncc2c3ccccc3n(C)c2c1=O	2	-0.68
CCOC(=O)c1c(C)[nH]c(C)c1S(=O)(=O)Nc1ccc(F)c(Cl)c1	1.6	·
COc1ccc(C2c3c(-c4ccccc4O)n[nH]c3C(=O)N2CCCO)cc1OC (stereo not drawn)	0.12	-2.7
Cc1ccc(NS(=O)(=O)c2cc(-c3csc(C)n3)ccc2C)c(Cl)c1	2.1	·
O=C(CSc1ccc(-c2cccs2)nn1)Nc1ccc(F)c(F)c1	1.3	·
Cc1cc(C)c2c(=O)[nH]c(SCC(=O)c3cccs3)nc2n1	·	-1.9
COc1cccc(C(=O)Nc2n[nH]c3ccccc23)c1	·	5.2*
CCCOc1ccc(OCCSc2nc3ncnc(N)c3[nH]2)cc1	·	-1.4
COCc1cc(=O)oc2cc(NC(=O)C3CC3)ccc12	·	-1.1
O=C(COCc1cc(-c2ccc3c(c2)OCO3)on1)N1CCCC1	-2.2	·
N=C1C(c2nc3ccccc3[nH]2)=C(O)CN1c1ccc(Oc2ccccc2)cc1	1.2	1.4
Cn1c(=O)[nH]c(=O)c2cnc(-c3ccncc3)nc21	1.8	-1.3
O=C(NC1CCCc2ccccc21)C1CCCN(c2nnc(N3CCCC3=O)s2)C1 (stereo not drawn)	0.7	-3
CN1C(=O)c2ccccc2Sc2ccc(NC(=O)NCc3cccc(Br)c3)cc21	-2	-2.5
Cc1c(C(=O)O)sc2ncnc(N3CCc4ccccc43)c12	-7.4	·
Cc1ccc(C(=O)O)cc1N1C(=O)c2ccc(C(=O)c3ccc4c(c3)C(=O)N(c3cc(C(=O)O)ccc3C)C4=O)cc2C1=O	·	-1.1
C=C1Cn2c(nc3c2c(=O)n(C)c(=O)n3C)S1	·	-1.1
Cc1cc(=O)n2nc(N3CCC(C(=O)N4CCCC4)CC3)sc2n1	1.1	-0.46
COCC1=C(C(=O)OC)C(c2cccs2)n2ncnc2N1 (stereo not drawn)	0.77	2.1
O=C(c1cnn2c(C(F)F)cc(-c3ccccc3)nc12)N1CCCC1c1cccc(F)c1 (stereo not drawn)	-0.47	-1.3
O=C(O)c1[nH]c2ccccc2c1Sc1ccc(Cl)cc1	1.2	·
Cc1ccc2occ(CC(=O)Nc3nc4ccc(S(C)(=O)=O)cc4s3)c2c1	2.6	-2
Fc1ccccc1N1CCN(c2ncc3c(n2)CCN(CCc2ccccc2)C3)CC1	0.58	·
Cc1ccc(S(=O)(=O)Nc2ccc(O)c3ncccc23)cc1	0.89	15*
CC1CCC(NC(=O)Nc2cn(C)c(=O)c3ccccc23)CC1 (stereo not drawn)	0.68	·
COc1cc(/C=c2/sc3nc4c(C)c(C)ccc4n3c2=O)cc2sc(=O)oc12	·	-2.8
O=C(Nc1c(C(=O)N2CCN(c3ccccc3)CC2)oc2ccccc12)c1cccs1	1.3	·
Cc1cc(-c2ccc(C)c(S(=O)(=O)NCCc3cccs3)c2)on1	0.14	·
CCC1(CC)COC2(OC1)C(=O)Nc1ccc(F)cc12	·	-0.73
O=C(COCc1cc(-c2ccco2)on1)Nc1ccc(F)cc1F	-1.3	·
Cc1[nH]nc(-c2ccc(S(=O)(=O)N3CCN(c4ncccn4)CC3)s2)c1C	-0.54	·
CCCCNC(=O)C1CC2CCCN2C12C(=O)Nc1ccccc12 (stereo not drawn)	0.73	·
CCOC(=O)C1CCN(S(=O)(=O)c2cc(-c3ccc(=O)[nH]n3)ccc2C)CC1	-0.96	-1.1
NC(=O)c1cc(S(=O)(=O)N2CCN(C3CCCCC3)CC2)cs1	1.8	·
O=C(CCCc1nnc2c(=O)n(-c3ccc(Cl)cc3)ccn12)N1CCc2ccccc2C1	1.2	·
Cc1ccc(Oc2ccc(-c3nc(N)nc(N)n3)cc2)cc1C	0.76	-0.88
CCOc1cccc(CC2C(=O)Nc3ccc(Br)cc32)c1OC (stereo not drawn)	2.8	-2.4
CC(C)CC(=O)N1CCC(c2nc3ccccc3o2)CC1	0.71	-0.95
COc1ccc(-c2cn(-c3ccccc3)c(=O)[nH]2)cc1OC	-1.3	-0.3
CCC(=O)N1c2ccccc2CC1C(=O)N1CCOCC1 (stereo not drawn)	1.4	·
CC(Sc1nc2ncnc(N)c2[nH]1)C(=O)O (stereo not drawn)	0.24	0.35
COc1cc(Nc2nc3ccccc3n3nnnc23)cc(OC)c1	-1.8	0.72
CCOC(=O)C(C)Oc1ccc2c(C)cc(=O)oc2c1C (stereo not drawn)	·	-0.66
Cc1cc(C)c(NC(=O)C(C)Sc2nc3c(c(=O)n(C)c(=O)n3C)n2C)c(C)c1 (stereo not drawn)	-1.1	-3.1
CCNc1cc(N2CCCC(C)C2)c2noc3c2c1C(=O)c1ccccc1-3 (stereo not drawn)	4.5*	-0.57
CCn1c(COc2ccc(OC)cc2)nc2ccccc21	1.8	-1.5
COC(=O)c1ccc2oc(=O)[nH]c2c1	1.1	·
Cc1sc2ncn(CC(=O)NCCCC(=O)NCC3COc4ccccc4O3)c(=O)c2c1C (stereo not drawn)	·	-0.78
CC(C)(C)c1ccc2c(c1)OCCOCCOCCOCCO2	·	-2
O=C(Cn1ncn2c(cc3sccc32)c1=O)NCc1ccc(Cl)cc1	0.11	-0.33

(cont.)
compound	TAR Tat displ	CDC25B-CDK2 inh
CCC(C)(C)NC(=S)N/N=C/c1ccccc1SC(C)(C)C	·	0.4
O=C(NCc1ccco1)C1CCCN(c2nc3ccccc3n3cccc23)C1 (stereo not drawn)	2.8	·
Cc1nc2c(=O)oc3ccccc3c2n1C(C)C	·	-0.83
CCOC(=O)CSc1n[nH]c(C)n1	-1.1	-2.8
CCOC(=O)c1nc(N(C)c2cccc(Cl)c2)c2ccccc2n1	0.19	·
CCCNc1ncnc2onc(C)c12	1	·
CC1(C)CC(=O)C(Sc2ccccc2)=C(O)C1	·	-2.5
Fc1cccc(C2CC(c3cccs3)Nc3nnnn32)c1 (stereo not drawn)	0.37	·
CCSc1nn(C)c2nc3c(c(=O)n12)C(C)(CC)Cc1ccccc1-3 (stereo not drawn)	-1.6	-0.37
CCN1CCN(c2nn3nnnc3c3ccccc23)CC1	1.1	-1.7
Cc1noc(C)c1CSc1ncnc2sc3c(c12)CCC(C)C3 (stereo not drawn)	·	-0.44
O=C(O)C(Cc1ccccc1)NS(=O)(=O)c1ccc2c(c1)OCCO2 (stereo not drawn)	1.4	1.2
O=C1CC(c2ccc(O)cc2)Oc2cc(O)ccc21 (stereo not drawn)	0.76	-0.62
Cc1c(NC(=O)C2CC(c3ccccc3F)=NO2)c(=O)n(-c2ccccc2)n1C (stereo not drawn)	-0.07	-1.2
O=C(Cn1c(=O)n(Cc2ccco2)c(=O)c2oc3ccccc3c21)Nc1ccc(Cl)cc1	2.3	·

Full records, quoted from the list. Values in the order: TAR Tat displ | CDC25B-CDK2 inh
Cn1c(=O)[nH]c(=O)c2cnc(-c3ccncc3)nc21 reads 1.8 | -1.3
Cc1csc2nc(CSc3ccccc3NC(=O)c3ccco3)cc(=O)n12 reads -0.64 | ·
O=C1CC(c2ccc(O)cc2)Oc2cc(O)ccc21 (stereo not drawn) reads 0.76 | -0.62

(next part)
compound	TAR Tat displ	CDC25B-CDK2 inh
COC(=O)c1c(C)sc(-c2c(-c3ccc(Cl)cc3)[nH]c3c2c(=O)[nH]c(=O)n3C)c1O	-3.2	-2.4
O=C(CSc1nnc2c3ccccc3nc(-c3ccccc3)n12)Nc1ccc2c(c1)OCCO2	0.92	·
O=C(CSC1=NS(=O)(=O)c2ccccc2N1)Nc1ccc(Cl)cc1	2.1	·
O=C(COCc1cc(-c2ccco2)on1)Nc1cc(Cl)ccc1O	-7.9	·
O=C(Cn1ncc2c3ccccc3n(Cc3ccc(F)cc3)c2c1=O)NCC1CCCO1 (stereo not drawn)	0.08	-2.7
CCOC(=O)c1nnc2c(Br)c(C)nn2c1C	·	-2.1
Cc1cccn2c(Nc3ccc4c(c3)OCCO4)c(-c3ccccc3O)nc12	0.62	1.7
C/C(=N\OC(=O)Nc1cc(C(C)(C)C)n(-c2ccccc2)n1)c1ccco1	·	-1.5
O=C1CC(c2cccc(Cl)c2)Cc2c1cnc1[nH]n(-c3ccccc3)c(=O)c21 (stereo not drawn)	1.8	-1.6
Cc1ccc2c(c1)NC(SCC(N)=O)=NS2(=O)=O	0.34	·
Cc1ccc(-c2nc(COc3ccccc3-c3nnc(-c4ccccc4)o3)c(C)o2)cc1	0.85	·
O=C(Nc1cccc(NC(=O)N2CCOCC2)c1F)N1CCOCC1	·	-0.08
CCC(=O)N1c2ccc(S(=O)(=O)CCC(=O)NC3CCCC3)cc2CC1C (stereo not drawn)	·	-2.3
COC(=O)c1sc(SC)c(-c2ccn[nH]2)c1C	·	-1.6
C1=C(c2ccccc2)Nc2ncnn2C1c1ccccc1 (stereo not drawn)	1.2	-1.7
Cc1[nH]nc(-c2ccc(S(=O)(=O)N3CCN(Cc4ccccc4)CC3)s2)c1C	-0.61	·
CC(=O)OCc1cnc(C)c2oc(=O)c(C(=O)Nc3cc(F)ccc3F)cc12	2.4	·
COc1ccc(-c2cn3nc(SCC(=O)NCC4CCCO4)ccc3n2)cc1 (stereo not drawn)	0.42	·
Cc1cccn2c(=O)c3cc(C#N)c(=O)n(-c4ccccc4Br)c3nc12	0.37	-2.3
Cn1nc(C(=O)N(CCCN2CCOCC2)Cc2ccco2)c2c1-c1ccccc1SC2	0.47	-1.1
O=C(c1cc(S(=O)(=O)N2CCSCC2)ccc1Cl)N1CCC(N2CCCCC2)CC1	0.84	·
COc1ccc(CCNC(=S)N(C)C)cc1OC	·	-0.65
O=C(Nc1nccs1)c1c(-c2ccccc2)nc2n1CCS2(=O)=O	-5.1	-0.52
O=C(NC1CCCCC1)N1CCC(n2c(=O)[nH]c3ccccc32)CC1	2.1	-1.3
O=C1C2CC=CCC2C(=O)N1c1ccccc1O (stereo not drawn)	0.52	-1.6
CCOC(=O)CCCCC(=O)c1[nH]c(=O)[nH]c1CN1CCOCC1	0.16	-0.21
COc1ccc(CN2C(=O)c3cccnc3C2=O)cc1S(=O)(=O)NC1CCCC1	-0.9	·
CC(=O)N1c2nc(-c3cccnc3)nn2C2(CCCCC2)[C@@H]2CCCC[C@@H]21	1.1	0.64
Cc1cc(NC(=O)CSc2nnc(Cn3c(=O)sc4ccccc43)n2-c2ccccc2C)no1	·	-0.88
Cc1cc2[nH]c(=O)[nH]c2cc1NC(=O)c1ccco1	0.57	·
CC1CCc2c(sc3ncnc(N4CCCC4)c23)C1 (stereo not drawn)	·	3.7
Cc1ccc(C)n1-c1cc([N+](=O)[O-])ccc1-n1ccnc1	·	-2.8
CN(C)c1ccc2c(=O)[nH][nH]c(=O)c2c1	·	-1.1
COc1ccc(-c2nnc(SCCOc3ccccc3C)o2)cc1OC	2.2	-2.8
Cn1c(NC2CCN(Cc3ccccc3)CC2)cc(=O)n(C)c1=O	·	-1.2

Ordered by length of the SMILES (rising): some entries from above.
compound	TAR Tat displ	CDC25B-CDK2 inh
CC1CCc2c(sc3ncnc(N4CCCC4)c23)C1 (stereo not drawn)	·	3.7
CN(C)c1ccc2c(=O)[nH][nH]c(=O)c2c1	·	-1.1
Cc1cc2[nH]c(=O)[nH]c2cc1NC(=O)c1ccco1	0.57	·
Cn1c(NC2CCN(Cc3ccccc3)CC2)cc(=O)n(C)c1=O	·	-1.2
CC(=O)N1c2nc(-c3cccnc3)nn2C2(CCCCC2)[C@@H]2CCCC[C@@H]21	1.1	0.64
